Biofilm kill mix: mixture kills Candida albicans biofilm cells; C. albicans biofilm persisters + clotrimazole, fluorescence viability; primary screen in compound mixtures of four per well; inhibition, % at 7.6 µM; hit rate 0.02% among 120,000;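 active = inhibition above 30.3% in the primary screen of four-compound pools, then above 30% when the compound was retested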;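 note: compounds exposed to preformed 24 h biofilms for 48 h; the number belongs to the whole pool; some results filed as inactive read as strong as hits; inactives centre near 12; 0% = biofilm with clotrimazole alone and 100% = kill control; retested singly at about 60 µM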
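Test system: C. albicans biofilms. Buffer or medium: RPMI/MOPS medium, pH 7.0. Timing: 48 h compound exposure at 37 °C. Technique: Alamar Blue fluorescence. Evaluation: percent inhibition of biofilm viability.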
* = called active by the depositor; & = joins results of further samples. An excerpt, so the mix of outcomes need not match the whole.

SMILES	Biofilm kill mix
Cc1ccsc1/C=N\NC(=O)c1cc(C(C)(C)C)[nH]n1	4
CCCCCC/C=C/c1ccc([C@H]2[C@H]3C=CC[C@@H](C)[C@@H]3C(=O)N2Cc2ccccc2)c(F)c1	24
O=[N+]([O-])c1ccccc1/C=N/n1c(-c2cccnc2)n[nH]c1=S	13
COCCNC(=O)CNC(=S)N(Cc1ccccc1)Cc1cccnc1	15
COc1ccc(/C(C)=N\Nc2nc(-c3ccccc3)cc(=O)[nH]2)cc1	9
CSc1nc(SCC(=O)NCC2CCCO2)c2c3c(sc2n1)CN(C)CC3 (stereo not given)	16
C=CCn1c(O)c(N=NC(=O)C(O)c2ccccc2)c2ccccc21 (stereo not given)	27
Cc1nn(-c2ccccc2)c(C)c1/C=C/C(=O)OCC(=O)Nc1ncc(C(F)(F)F)cc1Cl	13
CCc1noc(C)c1C(=O)N1CCCC(C(=O)c2cc(F)ccc2OC)C1 (stereo not given)	13
CCOC(=O)c1cn2nc(N3CCCC3)ccc2n1	9
Cc1ccc(OCC(O)CN2CCN(c3ccccn3)CC2)c(C)c1 (stereo not given)	24
COc1ccc2c(c1)CCCC21NC(=O)N(CC(=O)NC(=O)NCc2ccccc2)C1=O (stereo not given)	9
Nc1nccc(-c2ccc(-n3cccc3)cc2)n1	12
CCCN(CCC)C(=O)c1ccc2c(=O)n(Cc3ccco3)c(=S)[nH]c2c1	9
COc1ccc(CNC(=O)Cn2nnc3ccccc3c2=O)cc1	24
CSc1ccccc1NC(=O)CN(C)Cc1cccc(Cl)c1	21
CCCOc1ccc(N2C(=O)CC(N(CCc3ccc(OC)c(OC)c3)C(=O)c3ccccc3)C2=O)cc1 (stereo not given)	31
CC(Oc1ccc2oc3ccccc3c2c1)C(=O)NC12CC3CC(CC(C3)C1)C2 (stereo not given)	4
CCOc1ccc(NC(=O)c2ccc(-n3cccn3)nc2)cc1	8
COc1ccc(-c2csc(C3=C(O)CN(C(C)C)C3=N)n2)cc1OC	21
Cc1ccc(NC(=O)NNC(=O)c2cccs2)cc1	8
Cc1ccc(CNCc2cccnc2)s1	-3
CN1CCN(NC(=O)c2cccc3ccccc23)CC1	2
CC(=O)c1c(C)[nH]c(C(=O)OCC(=O)Nc2cc(S(=O)(=O)N3CCCCC3)ccc2C)c1C	13
CCCOc1ccccc1C1NC(=O)NC(C)=C1C(=O)OCc1ccccc1 (stereo not given)	11
O=C(NCc1ccccn1)c1cc(-c2ccc(Cl)cc2)oc1C(F)(F)F	17
Cc1ccc2nc(NC(=O)c3ccc(-c4nc5ccccc5s4)s3)sc2c1	14
O=C(Nc1ccccc1F)Nc1ccc([N+](=O)[O-])cc1Cl	8
COCCNC(C(=O)Nc1ccc(C)cc1[N+](=O)[O-])c1ccccc1 (stereo not given)	23
CCCCn1cnc(C(=O)OCC)c1N	17
Cn1c(N)c(C(=O)COC(=O)CCC2CCCC2)c(=O)n(C)c1=O	24
COCCCNC(=S)NNC(=O)c1ccccn1	-9
COc1ccc(CCn2c(C(C)C)nc3c(c(=O)c4ccccc4n3C)c2=O)cc1	16
CC1(C)CC2CC(C)(CN2/C=C2/CCCCC2=O)C1 (stereo not given)	10
Cc1nc2nc(SCC(=O)O)nn2c(C)c1Cc1c(F)cccc1Cl	12
COc1ccc(C(O)C(CC(=O)NCCCOC(C)C)C(=O)NCCCOC(C)C)cc1OC (stereo not given)	1
O=C(NCCN1CCOCC1)c1ccc2c(c1)N(Cc1c(F)cccc1Cl)C(=O)c1ccccc1S2	18
COC(=O)c1ccc2c(=O)[nH]c(CSc3nnc(C(F)(F)F)n3C)nc2c1	-2
CCCNC(=O)Nc1ccc(C(F)(F)F)cc1	-14
O=c1c(Cc2c(F)cccc2Cl)c(O)ccn1CCc1ccccn1	7
Cc1ccc(CN2C(=NC(=O)CCC(=O)O)SC3CS(=O)(=O)CC32)cc1 (stereo not given)	18
S=c1[nH]nc(NCCc2ccccc2)s1	4
CC(C)(C)c1cc(CCC(=O)NNC(=O)c2ccco2)cc(C(C)(C)C)c1O	13
O=C(CCc1ccc(S(=O)(=O)NCc2ccccc2)cc1)NCC1CCCO1 (stereo not given)	12
CCN(CC)P(=O)(Nc1cccc(C(F)(F)F)c1)c1ccc(N(C)C)cc1NC(=O)c1ccco1 (stereo not given)	14
CCOc1ccc(NC(=O)CN(C)CC(=O)Nc2ccc(Br)cc2F)cc1OCC	16
Fc1ccc(NC(=S)N2CCc3[nH]c4ccccc4c3C2)cc1	7
CCOc1cc(C(=S)N2CCCC2)ccc1OCC(=O)Nc1c(C)cc(C)cc1C	9
Cn1c(=O)n(C)c2cc(NS(=O)(=O)c3ccc(Cl)s3)ccc21	9
CCOC(=O)c1c(C)n(-c2ccc(C)cc2)c2ccc(OCC(O)CNCC3CCCO3)cc12 (stereo not given)	21
CCOC(=O)CSC1=NN2CCS(=O)(=O)N=C2S1	12
COc1ccc(C(=O)c2ccc(CC(=O)O)s2)cc1	2
CCOc1cccc(NC(=O)/C(C#N)=C/c2cccnc2)c1	13
COCC(=O)NNS(=O)(=O)c1ccccc1[N+](=O)[O-]	14
O=C(O)c1ccccc1OC(=O)C12CC3CC(CC(C3)C1)C2	1
Cc1cc(=O)oc2cc(OCC(=O)Nc3nnc(C4CC4)s3)ccc12	15
COc1ccc2c(c1)C1CC(C)(NC(=O)C1S(=O)(=O)c1ccc(F)cc1)O2 (stereo not given)	6
Cc1cccnc1NC(=O)CCNS(=O)(=O)c1ccc2c(c1)c(=O)n(C)c(=O)n2C	19
CC(NC(=O)Nc1ccccc1)C(c1cccs1)N1CCN(c2ccccc2)CC1 (stereo not given)	8
COc1ccc(/C=N/NC(=O)c2sc3nc(C)cc(C)c3c2N)cc1	33

By substructure, the entries above containing fluorine (14)
SMILES	Biofilm kill mix
CCCCCC/C=C/c1ccc([C@H]2[C@H]3C=CC[C@@H](C)[C@@H]3C(=O)N2Cc2ccccc2)c(F)c1	24
Cc1nn(-c2ccccc2)c(C)c1/C=C/C(=O)OCC(=O)Nc1ncc(C(F)(F)F)cc1Cl	13
CCc1noc(C)c1C(=O)N1CCCC(C(=O)c2cc(F)ccc2OC)C1 (stereo not given)	13
O=C(NCc1ccccn1)c1cc(-c2ccc(Cl)cc2)oc1C(F)(F)F	17
O=C(Nc1ccccc1F)Nc1ccc([N+](=O)[O-])cc1Cl	8
Cc1nc2nc(SCC(=O)O)nn2c(C)c1Cc1c(F)cccc1Cl	12
O=C(NCCN1CCOCC1)c1ccc2c(c1)N(Cc1c(F)cccc1Cl)C(=O)c1ccccc1S2	18
COC(=O)c1ccc2c(=O)[nH]c(CSc3nnc(C(F)(F)F)n3C)nc2c1	-2
CCCNC(=O)Nc1ccc(C(F)(F)F)cc1	-14
O=c1c(Cc2c(F)cccc2Cl)c(O)ccn1CCc1ccccn1	7
CCN(CC)P(=O)(Nc1cccc(C(F)(F)F)c1)c1ccc(N(C)C)cc1NC(=O)c1ccco1 (stereo not given)	14
CCOc1ccc(NC(=O)CN(C)CC(=O)Nc2ccc(Br)cc2F)cc1OCC	16
Fc1ccc(NC(=S)N2CCc3[nH]c4ccccc4c3C2)cc1	7
COc1ccc2c(c1)C1CC(C)(NC(=O)C1S(=O)(=O)c1ccc(F)cc1)O2 (stereo not given)	6

(list continues)
SMILES	Biofilm kill mix
COCCCNC(=O)c1ccccc1-c1cc(C)no1	17
COc1cc(C#N)c(NC(=S)N2CCOCC2)cc1OC	13
Cc1cc(CNC(=S)Nc2ccc(Br)cc2Cl)nn1C	13
CCSc1ccccc1C(=O)Nc1ccc2c(c1)OCO2	18
CCOC(=O)c1cnc2ccccc2c1Nc1cc(C(=O)O)ccc1C	16
O=C(CN1CCSCC1)N/N=C/c1cccc(Cl)c1	14
COc1ccc(NC(=O)Nc2ccc(CC(=O)O)cc2)cc1	13
COc1ccc(C(O)P(=O)(OC(C)C)OC(C)C)c(OC)c1 (stereo not given)	7
COC(=O)c1c(NC(C)=O)sc2c1CCCCC2	12
COC(=O)c1ccc2nc(-c3cccc(N)c3)cn2c1	8
CC1=C(C(N)=O)C(c2cccnc2)n2nc(SCc3ccccc3Cl)nc2N1 (stereo not given)	7
Cc1cc(C)n2nc(C(=O)N/N=C/c3ccc(O)cc3)nc2n1	21
COc1cccc(C(=O)Nc2c(F)cccc2F)c1	23
COc1cccc(C(=O)N2CCN=C2SC)c1	15
CC(NC(=O)C(=O)NCCC1=CCCCC1)c1ccccc1 (stereo not given)	11
Cc1onc(-c2c(Cl)cccc2Cl)c1NC(=O)NN(C)C	1
O=C(C1=C[C@@H](c2ccc(C(F)(F)F)cc2)C[C@@H](OCc2ccc(CO)cc2)O1)N1CCN(Cc2ccccc2)CC1	19
Cc1ccc2oc(C(F)(F)C(F)F)cc(=O)c2c1	17
CCN(CC)C(=O)c1ccc(Nc2nnc(C)c3ccccc23)cc1	9
C=CC(=O)N1C/C=C\C(c2ccc(OC)cc2)N(Cc2ccc(F)cc2)C(=O)C1 (stereo not given)	2

An excerpt of these results, in markdown:
| compound | Biofilm kill mix |
| --- | --- |
| COCCCNC(=O)c1ccccc1-c1cc(C)no1 | 17 |
| COc1cc(C#N)c(NC(=S)N2CCOCC2)cc1OC | 13 |
| Cc1cc(CNC(=S)Nc2ccc(Br)cc2Cl)nn1C | 13 |
| CCSc1ccccc1C(=O)Nc1ccc2c(c1)OCO2 | 18 |
| CCOC(=O)c1cnc2ccccc2c1Nc1cc(C(=O)O)ccc1C | 16 |

(further entries)
SMILES	Biofilm kill mix
Cc1onc(-c2ccccc2Cl)c1C(=O)NC(=S)Nc1ccc(C(C)C)cc1	4
Cc1cc(Nc2ccccc2)n(C(=O)c2ccc(N)cc2)n1	8
CCCNC(=O)Nc1nc2ccccc2s1	19
CC(NC(=O)c1cnccn1)c1ccc(S(N)(=O)=O)cc1 (stereo not given)	6
N#CC(=C=[N-])c1nc2ccccc2nc1-[n+]1cccc(NC(=O)c2ccccc2)c1	8&17
C(=C\c1nnc2c3ccccc3ncn12)/c1ccccc1	-3
CCCCc1nnc(NC(=O)Cn2cnc3ccccc3c2=O)s1	8
CCCc1cc(=O)oc2cc(OCc3ccc(OC)cc3)c(Cl)cc12	20
CCN(c1ccccc1)C1(O)C(=O)c2ccccc2C1=O	4
COc1cc(OC)c(N(C)S(=O)(=O)c2cccc(C(=O)OCC(=O)c3c[nH]c4ccccc34)c2)cc1Cl	12
Cc1cc(C)nc(NC(N)=S)n1	4
C=C(C)CNC(=O)CCc1nnc(Cc2cccc(C(F)(F)F)c2)o1	15
CCOC(=O)/C=C/C(=O)N1CCN(C(=O)/C=C/C(=O)OCC)CC1	23
CC(C)(C)c1ccc(C(=O)N2CCCCCC2=O)cc1	7
CCOc1cc(CNc2ccc(N3CCN(C(C)=O)CC3)cc2)cc(Br)c1OC	2
COc1ccc(NC(=O)CN(C)C2CCCCC2)cc1Cl	-6
O=C(NN1C(=O)c2ccccc2NC12CCCCC2)c1ccccc1	21
COc1cc(/C=N/NC(=S)NCC2CCCO2)cc(OC)c1OC (stereo not given)	7
Nc1ccccc1SC1CC(=O)N(c2ccc3c(c2)OCCO3)C1=O (stereo not given)	28
Cc1cccc(NC(=O)CN2C(=S)NC(C)(C)CC2C)c1C (stereo not given)	12
COc1ccccc1OCC(=O)NCc1nc(-c2ccccc2)no1	11
CCN(CC(=O)Nc1ccc(N2CCOCC2)cc1)C(=O)c1ccc(C(F)(F)F)cc1	6
Nc1nc(SCn2nnc3ccccc3c2=O)n[nH]1	20
COc1cccc(C2c3[nH]c4ccccc4c3CCN2Cc2cccc(C)n2)c1 (stereo not given)	15
COc1ccc(C(=O)N2CCC(C(=O)Nc3ccccc3C)CC2)cc1OC	27
COc1ccc(C(=O)Nc2cc(C(C)=O)c(C)oc2=O)cc1	9
Clc1ccc(-c2nc(/C=N/N3CCOCC3)c3ccccn23)cc1	11
Clc1ccc(Cn2cnc3ccccc32)cc1	8
Cc1ccc(NC(=O)CN2C(=O)N/C(=C\c3cccn3-c3cccc(C(=O)O)c3)C2=O)cc1	2
CC(C)CC(=O)Nc1cccc(C(C)O)c1 (stereo not given)	8
COc1cc(NC(=O)CSc2nncn2C)c(C)cc1[N+](=O)[O-]	16
CC(=O)N1CCN(Cc2nc3cc(NC(=O)c4ccc(F)cc4)ccc3n2C)CC1	-12
O=C(NC(=S)NCc1cccnc1)c1cc2ccccc2o1	0
O=C(/C=C/c1ccc([N+](=O)[O-])cc1)OCC(=O)N1c2ccccc2Sc2ccccc21	8
CSCCC(NC(=O)/C(=C/c1ccc(F)cc1)NC(C)=O)C(=O)O (stereo not given)	24
Cc1cccc(OCC(O)CN2CCN(CCN3C(=O)c4cccc5cccc(c45)C3=O)CC2)c1C (stereo not given)	15
Cc1nn(C)cc1C1Nc2ccccc2C(=O)N1O (stereo not given)	11
O=C(CSC1=NCCS1)Nc1ccc2ccccc2c1	17
COc1ccc(/C=N/NC(=O)CC2N=C(Cc3ccccc3)NNC2=O)cc1OC (stereo not given)	20
CC(=O)Cn1ncc(N2CCOCC2)c(Br)c1=O	-3
COc1ccc(O[C@H]2C=C[C@@H](c3ccccc3)O[C@@H]2COC(=O)CCC(C)=NO[C@@H]2O[C@H](COC(C)=O)[C@@H](OC(C)=O)[C@H](OC(C)=O)[C@H]2OC(C)=O)cc1	-3
O=C(O)CC(NC(=O)C1CCCCC1)c1cc([N+](=O)[O-])ccc1Cl (stereo not given)	13
CCS(=O)(=O)c1ccc(O)c(NC(=O)NC2CCCCC2)c1	11
CCOC(=O)c1cnc2c(c(C)nn2C)c1Oc1ccccc1F	14
Clc1nc2nc3n(c2nc1Cl)CCC3	3
O=C(O)c1ccc(-c2ccc(/C=N/Nc3ccc([N+](=O)[O-])cc3)o2)cc1	25
CN(c1ccccc1)S(=O)(=O)c1cccc(NC(=O)CN2CCc3ccccc3C2)c1	17
N#C/C(=C/c1ccc(Br)o1)C(N)=S	23
CNC(=O)CCN(Cc1ccco1)S(=O)(=O)c1ccc(OC)c(OC)c1	8
Cc1ccc2oc(=O)n(CCOc3ccccc3C)c2c1	24
CCOc1ncccc1C(=O)OCC(=O)Nc1cc(S(=O)(=O)N(CC)CC)ccc1C	26
O=C1NC(c2cccc([N+](=O)[O-])c2)Oc2ccccc21 (stereo not given)	18
CCOC(=O)c1cc(C)[nH]c(=O)c1C#N	24
